B2AR ag = beta2AR agonists driving receptor internalization, primary screen, cell-based, FAP fluorogen, flow cytometry | Am2.2-beta2AR cells; reference of the scale not given here | Beta-2 adrenergic receptor (Homo sapiens), P07550 | actives 0.43% (n = 340,000) | response, % (concentration not given with the values);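 active = response above a set limit, near 3 SD of response in nonfluorescent compounds, cut at about 42% in these data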;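 also: stock transfer was 100 nL into about 11 µL; a reference agonist was the positive control; negative values mostly stem from fluorescent compounds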
Target sequence (P07550 whole entry, looked up): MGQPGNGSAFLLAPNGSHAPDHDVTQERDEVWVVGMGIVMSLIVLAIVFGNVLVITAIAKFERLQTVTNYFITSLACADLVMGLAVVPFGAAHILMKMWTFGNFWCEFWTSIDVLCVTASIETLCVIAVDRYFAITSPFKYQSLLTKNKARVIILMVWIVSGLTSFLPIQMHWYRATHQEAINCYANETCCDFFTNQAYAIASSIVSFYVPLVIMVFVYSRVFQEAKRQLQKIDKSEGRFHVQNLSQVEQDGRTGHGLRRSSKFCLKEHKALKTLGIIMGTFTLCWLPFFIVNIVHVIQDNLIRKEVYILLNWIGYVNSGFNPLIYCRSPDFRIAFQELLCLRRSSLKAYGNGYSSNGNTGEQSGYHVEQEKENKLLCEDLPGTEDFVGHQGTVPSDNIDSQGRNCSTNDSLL
LANA-H2B inh = blockers of LANA interaction with H2A/H2B – biochemical, FP readout, HTS, primary screen | Protein LANA1 (Human herpesvirus 8 type P (isolate GK18)), Q9QR71 | cell-free LANA-H2A/H2B peptide, fluorescence polarization | inhibition, % (concentration not given with the values) | actives 0.6% (n = 320,000); in the data active = inhibition mostly above about 10%, no sharp cut-off; inactive = mostly below about 6.7%;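 also: stock transfer was 7.5 nL into about 10 µL; 0% = median of vehicle wells and 100% = median of positive control wells; one replicate is shown; the record names a cut of 25% in any replicate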
Ecoli growth = E. coli growth inhibition, primary screen, OD600; Escherichia coli growth, 23 h; active compounds read low; OD600 absorbance (no concentration beside the values); actives 0.21% (n = 330,000); AID 1053175, 2014;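 active = OD600 absorbance below the run mean of sample wells minus 3.6 SD, in any replicate, cut at about 0.56 in these data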;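 also: stock transfer was 300 nL into about 60 µL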
UCH37 inh = inhibitors of human UCH37 deubiquitinase, primary screen, biochemical, Ub-AMC cleavage, fluorescence. Ubiquitin carboxyl-terminal hydrolase isozyme L5 (Homo sapiens), Q9Y5K5. actives 0.33% (n = 330,000). inhibition, % (test concentration not listed). purified proteasome/UCH37;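 active = mean of two replicates above 20%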;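 also: 0% = compound-free wells with enzyme and 100% = wells lacking proteasome; stock transfer was 100 nL into about 20 µL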
Target sequence (Q9Y5K5 whole entry, looked up): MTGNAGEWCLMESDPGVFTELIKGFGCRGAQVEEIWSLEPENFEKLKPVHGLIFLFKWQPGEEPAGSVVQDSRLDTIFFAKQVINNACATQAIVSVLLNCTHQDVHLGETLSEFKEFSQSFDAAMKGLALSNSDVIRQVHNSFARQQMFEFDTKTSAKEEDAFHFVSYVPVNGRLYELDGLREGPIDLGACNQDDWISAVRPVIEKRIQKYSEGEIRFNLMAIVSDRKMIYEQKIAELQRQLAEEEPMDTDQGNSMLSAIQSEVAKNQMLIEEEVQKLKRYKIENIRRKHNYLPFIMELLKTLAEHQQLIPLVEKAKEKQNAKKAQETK
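Material: human UCH37 enzyme supplied as purified proteasome complex. Measure: % inhibition of Ub-AMC cleavage fluorescence. Medium: pH 7.4 Tris-HCl (50 mM) with ovalbumin, ATP-MgCl2, DTT. Times: 30 min preincubation with enzyme, 25 min cleavage at room temperature. Detection: AMC fluorescence intensity at 355/460 nm.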
A1 inh = caspase 3/7 activation in MEF A1-2A-BIM cells, primary screen, A1 inhibitor project, cell-based, luminescence, HTS. Caspase-Glo 3/7 luminescence, 3 h; percent of clofoctol response, vehicle zero. caspase activation, % (no concentration beside the values). actives 0.066% (n = 330,000). AID 2462, 2010;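 active = over half of replicate activation scores above 10%, or exactly half above 10 with the replicate mean above 10; inconclusive = replicate mean below 10 yet half the replicates above 10; inactive = over half of replicates below 10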;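 also: wells of about 30 µL received 50 nL stock; many hits fall short of the cut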
HNF4A DNA FP = change in binding of human HNF4A to DNA, primary screen, biochemical, fluorescence polarization, FITC-DNA | 1 h | activity change, % at 10 µM | actives 0.3% (n = 360,000) | AID 1224865, 2016; in the data active = activity change above about 30%, passing the limit was not always enough;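 also: controls were the assay level and a saturating level of protein; the project sought stronger binding though the title names inhibitors; some compounds called inactive have numbers as strong as hits; positive values seem to mean higher polarization but the record does not say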
Vif TR-FRET = inhibitors of Vif binding to APOBEC3G peptide, primary screen, biochemical, TR-FRET, GST-Vif 1-94, biotin-A3G peptide, dose response retest (AID 1117319); Virion infectivity factor (Human immunodeficiency virus type 1 group M subtype B (isolate …; inhibition, %, or IC50 in µM where a hit was titrated; actives 0.57% (n = 260,000); TR-FRET GST-Vif / biotin-A3G peptide binding; higher % means a stronger effect; test concentration not given here; strong numbers were not always called active;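 active = above the screen mean plus three standard deviations and confirmed in dose response; inconclusive = results disagree or hit not tested in dose response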;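 also: Vif residues 1-94 fused to GST binding biotinylated APOBEC3G peptide 110-148; 0% = full assay without inhibitor and 100% = GST in place of GST-Vif; retest series ran down from 100 µM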
* hit, by the source's call; ? = inconclusive; . = not tested or not shown.

SMILES	B2AR ag	LANA-H2B inh	Ecoli growth	UCH37 inh	A1 inh	HNF4A DNA FP	Vif TR-FRET
Cc1cccc2c1-c1sc(C(=O)N3CCc4ccccc4C3)cc1CO2	-4	-1.7	0.79	-362	-0.6	-1.7	-3%
CC(C)(C)C(=O)CSc1nc2ncc(Br)cc2[nH]1	-1	3.1	0.75	4.5	-0.3	-0.7	15%
Cc1cc(C)c(S(=O)(=O)N(C)c2ccccc2)c(C)c1	10	-2.5	0.71	-1.6	1.2	-6.7	-3%
N/C(=N\OC(=O)c1ccc(Cl)c([N+](=O)[O-])c1)c1ccccc1	-4	-2.7	.	.	-3.2	0.6	.
CNc1ccc(/C=C(\C#N)C(=O)Nc2ccccn2)cc1[N+](=O)[O-]	-9	3.2	0.68	6.6	1.0	-0.4	-2%
CC(C)c1ccc(NC(=O)C2CCN(C(=O)[C@@H]3Cc4ccccc4CN3)CC2)cc1	29	-9.2	0.65	2.4	-0.7	2.4	.
CC(C)(C)OC(=O)NN1CC(=O)N2Cc3[nH]c4ccccc4c3C[C@H]2C1=O	-7	2.6	0.66	2.2	0.3	2.1	-8%
Cc1ccc(/C=N/NC(=O)NN(C)c2ncc(C(F)(F)F)cc2Cl)cc1	-1	7.5	.	.	0.3	6.3	.
CCSc1nnc(NC(=O)C(C)Sc2nc3ccccc3[nH]2)s1 (stereo unspecified)	-12	-4.5	0.66	3.3	-0.9	-1.9	.
O=C(c1cccc(S(=O)(=O)NCCOc2ccccc2)c1)N1CCN(c2ncccn2)CC1	-2	-2.3	0.7	1.5	0.0	0.3	-3%

Taken from above.
O=C(c1cccc(S(=O)(=O)NCCOc2ccccc2)c1)N1CCN(c2ncccn2)CC1 in UCH37 inh = 1.5
CNc1ccc(/C=C(\C#N)C(=O)Nc2ccccn2)cc1[N+](=O)[O-] in LANA-H2B inh = 3.2
Cc1ccc(/C=N/NC(=O)NN(C)c2ncc(C(F)(F)F)cc2Cl)cc1 in A1 inh = 0.3
CCSc1nnc(NC(=O)C(C)Sc2nc3ccccc3[nH]2)s1 (stereo unspecified) in HNF4A DNA FP = -1.9

Further results follow:
SMILES	B2AR ag	LANA-H2B inh	Ecoli growth	UCH37 inh	A1 inh	HNF4A DNA FP	Vif TR-FRET
Cc1noc(C)c1CSc1ncnc2sc(C)c(C)c12	6	4.2	0.74	-5.3	-1.6	-0.4	-32%
CC(C)C(=O)Nc1nnc(Sc2ccc(N(C)C)cc2)s1	4	2.1	0.69	2.2	0.8	1.2	55µM*
Cn1ccc2cc(NC(=O)Nc3cccnc3)ccc21	-5	-3.5	0.69	-0.3	-2.1	-1.2	.
CC(=O)c1c(C)[nH]c(C(=O)OC2CCCCC2=O)c1C (stereo unspecified)	1	-6.6	0.7	2.2	-1.8	-4.5	-3%
Cc1cccc(NC(=O)C(C)Sc2nc3ccccc3c(=O)n2CCCN2CCOCC2)c1 (stereo unspecified)	-4	1.9	0.66	1.9	-0.7	1.7	-4%
CCOC(=O)COc1nc(-c2ccco2)cc(-c2ccco2)c1C#N	10	-1.4	0.75	-408	2.2	7.3	5.8µM*
COc1cc2c(cc1NC(=O)CN1C(=O)NC3(CCc4ccccc43)C1=O)oc1ccccc12 (stereo unspecified)	14	1.2	0.7	-2.7	0.3	-1.1	0%
Cc1ccc(O)c(C2=Nc3ccccc3N=C(c3cccc([N+](=O)[O-])c3)C2)c1	-2	-4.6	0.7	7.0	0.0	-0.8	?
COC(=O)c1c(NC(=O)C(Cl)Cl)sc2c1C(C(=O)OC)CC2 (stereo unspecified)	6	1.4	0.68	8.4	0.0	1.9	6%
COc1ccc([C@H]2CC(=O)C=C(c3ccc(Cl)c(C(F)(F)F)c3)C2)cc1OC	3	-0.3	.	1.9	-0.5	5.4	.
COCCCn1c(C(=O)N2CCOCC2)cc2c(=O)n3cccc(C)c3nc21	-15	-12	0.68	-402	-1.0	-2.7	.
CCOc1cccc(CNc2nnnn2C)c1	-4	-2.4	0.61	2.9	0.2	-0.5	.
Cn1cc(CN2CCC(C(O)c3cccs3)CC2)c(-c2ccccc2F)n1 (stereo unspecified)	3	.	0.66	0.5	.	0.9	16%
Cc1c(NC(=O)C(C)SC(=S)N2CCCC2)c(=O)n(-c2ccccc2)n1C (stereo unspecified)	-12	.	0.65	3.7	-0.6	0.3	-2%
Cc1nc(Nc2ccc(C(=O)O)cc2)sc1-c1ccccc1	1	-9.3	0.72	4.5	-15	3.1	.
COc1ccc(N2CCN(C(=O)CN3C(=O)NC(c4ccc(OC)cc4)(c4ccc(OC)cc4)C3=O)CC2)cc1	-1	-1.3	0.73	0.4	-0.5	-2.2	.
O=C(COC(=O)c1ccc(C(F)(F)F)cc1)Nc1cccc(S(=O)(=O)NC2=NCCCCC2)c1	-2	-2.5	0.69	3.6	0.3	2.6	.
Cc1cc(C)c(C#N)c(SCc2ccccc2F)n1	-9	-1.7	0.65	-4.0	0.6	-7.6	16%
Cc1ccc(Cn2ccc(=O)c(OCc3c(Cl)cccc3Cl)c2C)cc1	16	4.3	0.67	25*	0.4	0.0	12%
COc1ccc(S(=O)(=O)N2CCN(C(=O)CCSc3ccccc3)CC2)cc1	-3	1.1	0.67	1.8	-0.6	-0.6	.
CCOCc1cn(CC(=O)c2ccc([N+](=O)[O-])cc2)c(C)nc1=N	4	0.8	0.69	-0.9	0.0	-7.5	4%
O=C(Nc1ccc2c(c1)OCCO2)c1ccccc1	-7	3.1	0.66	0.2	-6.4	2.1	6%
O=C(Nc1ccc2c(c1)OCCO2)N1CCN(Cc2ccccc2)CC1	-2	1.7	0.66	5.6	0.4	5.7	11%
CC1(C(=O)NCCCNc2ncc(C(F)(F)F)cc2Cl)C=CCN1C(=O)c1ccccc1 (stereo unspecified)	-2	3.6	0.66	2.2	-0.2	-1.7	-1%
N#C/C(=C\c1ccc2c(c1)OCCO2)C(=O)Nc1ccc(C(=O)O)cc1	8	0.5	0.63	6.4	0.7	2.3	-8%
Cc1ccc(NC(=O)COC(=O)CNC(=O)c2cccc([N+](=O)[O-])c2)cc1S(=O)(=O)N1CCCCCC1	1	6.7	0.6	1.7	0.4	1.0	13%
CN(CC1COc2ccccc2O1)C(=O)c1cccc(S(=O)(=O)N2CCCC2)c1 (stereo unspecified)	4	2.0	0.7	0.0	-0.1	-1.4	-8%
O=C(c1ccc2c(c1)N(Cc1ccccc1F)C(=O)c1ccccc1S2(=O)=O)N1CCCC1	2	11	0.73	3.4	0.5	6.1	-3%
COCCCn1c(=O)c2sccc2n(Cc2cc(C(=O)OC)ccc2OC)c1=O	-2	-9.6	0.67	2.0	0.1	2.0	.
COc1ccc(Cl)cc1NC(=O)Nc1ccccc1SC	-1	0.1	0.71	1.4	0.7	2.8	.
C=CCNC(=S)Nc1ccc(N(C)C)cc1	6	-4.0	0.7	3.9	0.9	2.6	20%
Cc1nn(C)c(Cl)c1C(=O)NCC(=O)NCc1ccccc1	4	-2.9	0.72	0.3	0.2	1.6	?
CCOc1ccc(NC(=O)c2ccc(NS(=O)(=O)c3cccs3)cc2)cc1	9	-1.8	0.63	3.1	0.3	0.7	.
O=S(=O)(C/C(=C/CO)S(=O)(=O)c1ccccc1)c1ccccc1	28	1.7	0.72	1.2	0.1	0.3	4%
CC1(C)Cc2c(sc3c2C2=NCCN2C=N3)CO1	10	-1.3	0.74	-3.8	-0.8	1.6	.
CCOc1ccc(CNC(=O)CCS(=O)(=O)c2ccc3c(c2)oc(=O)n3C)cc1	-1	-1.4	0.67	-0.9	0.7	6.6	.
Cc1nc(-c2cccc(NS(=O)(=O)c3cccc4ccccc34)c2)cs1	-4	1.6	0.67	0.0	0.3	-3.8	14%
O=C(CSCc1ccc(Br)cc1)Nc1ccc(S(=O)(=O)N2CCOCC2)cc1	1	-3.3	0.74	3.5	?	-0.5	0%
Cc1nc(CN2CCN(Cc3nc(C(c4ccccc4)c4ccccc4)no3)CC2)cs1	-4	-1.3	.	.	-0.1	0.9	1%
O=C(NCC(c1cccnc1)N1CCOCC1)C1CCCCC1 (stereo unspecified)	-6	1.9	0.68	1.3	?	-0.4	24%
COc1ccc(C(=O)OCC(=O)Nc2c(C)cccc2C)cc1	2	-1.7	0.65	4.7	-0.6	2.4	.
COc1ccc(C(=O)Oc2c(OC)cc(C(=S)N3CCOCC3)cc2OC)cc1	-1	-0.6	0.7	4.1	0.6	0.9	.
CCCCN(C(=O)CSc1nnnn1-c1ccccc1OC)C1CCS(=O)(=O)C1 (stereo unspecified)	-1	2.1	0.64	1.6	0.1	-0.8	6%
COc1ccc(C2CC(O)(c3ccccc3)Oc3cc(OC)ccc32)cc1 (stereo unspecified)	3	8.6	0.65	0.9	0.6	-2.0	-4%
Cn1c(CSCc2ccc(F)cc2)n[nH]c1=S	4	-0.8	0.7	1.9	2.2	3.0	.
N#C/C(=C(/O)CSc1ccccn1)c1nc2ccccc2s1	-19	1.2	0.66	16	-1.6	-3.8	.
O=C(/C=C/c1ccc(F)cc1)N1CCCc2ccccc21	1	-4.0	0.69	6.1	-0.3	0.3	-8%
NC(=O)c1ccc(NC(=O)COc2cccc3c2CCNC3=O)cc1	-8	.	0.57	0.4	.	-2.9	-9%
CN(CC(=O)NCCc1ccc(S(N)(=O)=O)cc1)CC(=O)Nc1ccc(Cl)cc1	-4	-9.6	0.67	0.8	-1.0	-0.7	-3%
COc1cc(CNn2cnnc2)ccc1OCC(=O)NC1CCCCC1	1	2.0	0.74	3.0	0.4	-0.5	0%

(listing goes on)
SMILES	B2AR ag	LANA-H2B inh	Ecoli growth	UCH37 inh	A1 inh	HNF4A DNA FP	Vif TR-FRET
C[C@H](CO)N1C[C@H](C)[C@@H](CN(C)C(=O)Nc2ccc3c(c2)OCO3)Oc2c(NS(=O)(=O)c3cn(C)cn3)cccc2C1=O	.	-3.6	0.76	-2.1	0.6	1.6	.
CSc1ccccc1NC(=S)Nc1cc(C)cc(C)c1	-2	-2.5	0.78	-0.7	-0.6	-2.0	-5%
COc1ccccc1N(C)S(=O)(=O)c1ccc(C(=O)N2CCCc3ccccc32)cc1	16	2.1	0.7	1.3	-0.2	-0.6	.
Cc1ccccc1C(=O)N/N=C/c1cccc2ccccc12	7	-2.3	.	.	0.3	0.8	4%
CCc1ccc(Nc2c([N+](=O)[O-])c(=O)oc3ccccc23)cc1	-2	1.6	0.64	6.1	0.0	4.3	-4%
Cc1ccc(S(=O)(=O)N2CCOCC2)cc1C(=O)Nc1c(C)n(C)n(-c2ccccc2)c1=O	18	-1.3	0.7	1.6	-0.1	-1.2	1%
C=CCN(C(=O)c1csnn1)C(C(=O)NCc1ccc(F)cc1)c1sccc1C (stereo unspecified)	13	-1.1	0.66	1.8	0.0	-0.9	.
COc1ccc(C(CNC(=O)c2ccc(S(=O)(=O)N3CCCC3)cc2)N(C)C)cc1OC (stereo unspecified)	-2	-1.3	0.69	-0.1	-0.4	1.0	6%
CNC(=S)N/N=C/c1c(C)nn(-c2ccc(F)cc2)c1Cl	4	-1.2	.	.	0.3	11	-15%
O=S(=O)(Nc1ccccc1)c1ccc(-c2csnn2)cc1	-4	0.1	0.66	4.1	-0.5	2.8	6%
Cc1ccc(CC(=O)Nc2cc([N+](=O)[O-])ccc2F)cc1	1	0.1	0.72	2.5	-1.1	2.4	-3%

UCH37 inh: entries above that show a hit
Structure,B2AR ag,LANA-H2B inh,UCH37 inh,A1 inh,HNF4A DNA FP,Vif TR-FRET
Cc1ccc(Cn2ccc(=O)c(OCc3c(Cl)cccc3Cl)c2C)cc1,16,4.3,25*,0.4,0.0,12%

Screens (PubChem)
